# Screening data as filed in PubChem BioAssay.
# Fam108B inh: blocks mouse Fam108B hydrolase in RBBP9 counter-screen; recombinant Fam108B, FP-Rh probe fluorescence polarization; inhibition, % at 9.51 µM; 300,000 compounds, 0.33% hits; AID 1947;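 active = inhibition above the screen mean inhibition plus 3 SD, computed separately per campaign, cut at about 18% in these data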;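 also: inhibitors lower polarization as less probe binds the enzyme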
# MEX-5 binding: C. elegans MEX-5 TCR-2 RNA binding activity. activity score (negative = inhibition of binding), % at 10 µM. Q9XUB2. MEX-5/FITC-TCR2 RNA binding, fluorescence polarization; hits give low values. 300,000 compounds, 0.38% hits. AID 1832;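 active = inhibition past about -25% in most replicates, and total fluorescence under double the plate's negative control median, limit read from the data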;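 also: 0% = DMSO and -100% = 5 µM competing unlabeled TCR2 RNA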
# MCL1-BIM inh: inhibitors of human MCL1 binding to BIM-BH3 peptide. inhibition, % at 10.9 µM. AID 2057. 320,000 compounds, 0.68% hits. GST-MCL1 / FITC-Bim-BH3 fluorescence polarization. Q07820;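 active = inhibition above the mean inhibition of all tested compounds plus 3 SD, set per campaign, cut at about 40% in these data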;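 also: 0% = DMSO wells and 100% = unlabeled Bim-BH3 peptide control; higher means more loss of mP so more displacement of Bim peptide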
# Target sequence (Q07820 whole entry, looked up): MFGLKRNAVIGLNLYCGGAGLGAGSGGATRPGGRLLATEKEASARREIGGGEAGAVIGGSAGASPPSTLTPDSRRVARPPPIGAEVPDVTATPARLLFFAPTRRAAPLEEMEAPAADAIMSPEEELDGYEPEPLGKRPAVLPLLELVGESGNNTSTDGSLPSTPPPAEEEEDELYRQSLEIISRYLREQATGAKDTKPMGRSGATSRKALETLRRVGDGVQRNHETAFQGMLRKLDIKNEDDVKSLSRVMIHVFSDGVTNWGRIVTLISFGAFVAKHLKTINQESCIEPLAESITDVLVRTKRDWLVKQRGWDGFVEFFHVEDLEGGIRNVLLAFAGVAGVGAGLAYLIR
# TPT1 inh: C. albicans TPT1 enzyme inhibition; recombinant caTPT1, FP RNA substrate dephosphorylation; inhibition, % at 5 µM; 300,000 compounds, 0.81% hits; AID 1962;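 active = inhibition above the mean of all tested compounds plus 3 SD, set per screening campaign, cut at about 24% in these data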;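 also: plate controls were DMSO alone for no effect and ferristatin control at 100 nM for full effect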
# BCLXL inh: blocks human Bcl-xL binding to Bim BH3 peptide; Q07817; GST-Bcl-xL / FITC-Bim BH3 peptide fluorescence polarization; inhibition, % at 10.9 µM; 320,000 compounds, 0.7% hits; AID 2129;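 active = inhibition above the mean of all tested compounds plus 3 SD, cutoff set per campaign, cut at about 30% in these data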;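 also: 0% = DMSO wells and 100% = unlabeled Bim-BH3 peptide competitor; inhibitors lower millipolarization by displacing the labeled peptide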
# Target sequence (Q07817 whole entry, looked up): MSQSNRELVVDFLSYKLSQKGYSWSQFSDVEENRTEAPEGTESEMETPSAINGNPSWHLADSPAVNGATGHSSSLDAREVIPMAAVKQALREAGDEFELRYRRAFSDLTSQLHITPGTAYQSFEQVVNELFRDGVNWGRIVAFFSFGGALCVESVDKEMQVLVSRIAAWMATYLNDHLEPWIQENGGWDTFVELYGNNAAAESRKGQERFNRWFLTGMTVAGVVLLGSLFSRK
# PME-1 inh: blocks human protein phosphatase methylesterase 1; Q9Y570; recombinant PME-1, FP-Rh probe fluorescence polarization; inhibition, % at 5.9 µM; 320,000 compounds, 0.53% hits; AID 2130;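 active = inhibition above the campaign mean of all compounds plus 3 SD, cut at about 26% in these data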;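 also: competitive labeling of PME-1 active site by serine hydrolase directed probe; 0% = PME-1 with DMSO and 100% = wells lacking PME-1 enzyme; inhibitors block probe labeling so polarization falls and inhibition rises; many of its hits are not listed in these tables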
# Target sequence (Q9Y570 whole entry, looked up): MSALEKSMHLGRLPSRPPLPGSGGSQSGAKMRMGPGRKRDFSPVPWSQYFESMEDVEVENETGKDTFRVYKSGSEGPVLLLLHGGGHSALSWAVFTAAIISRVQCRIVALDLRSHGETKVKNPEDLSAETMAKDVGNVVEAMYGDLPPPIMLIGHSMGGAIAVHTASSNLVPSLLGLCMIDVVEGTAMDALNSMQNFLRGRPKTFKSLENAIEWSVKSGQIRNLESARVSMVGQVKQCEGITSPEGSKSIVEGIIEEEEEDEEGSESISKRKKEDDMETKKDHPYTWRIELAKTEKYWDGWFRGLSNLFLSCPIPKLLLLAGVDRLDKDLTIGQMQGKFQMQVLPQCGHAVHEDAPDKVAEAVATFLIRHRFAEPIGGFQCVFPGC
# PAD4 FP inh: inhibitors of human PAD4 | inhibition, % at 6.36 µM | recombinant PAD4, RCA probe fluorescence polarization | Q9UM07 | 330,000 compounds, 0.41% hits;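 active = percent inhibition above a cutoff equal to the mean of all tested compounds plus 3 SD, cut at about 15% in these data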;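 also: 0% = PAD4 with RCA probe and DMSO and 100% = probe without PAD4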
# GLD-1 TGE inh: GLD-1-TGE RNA interaction inhibition (C. elegans). Q17339. purified GLD-1 + fluorescein TGE RNA, fluorescence polarization. inhibition, % at 5.96 µM. 320,000 compounds, 0.44% hits;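 active = percent inhibition above a per-plate cutoff, the plate mean of test compounds plus 3 SD, cut at about 30% in these data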;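 also: 0% = DMSO wells with GLD-1 and probe and 100% = wells lacking GLD-1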
# * hit, by the source's call. An excerpt; the hit share may differ from the screen's.
SMILES,Fam108B inh,MEX-5 binding,MCL1-BIM inh,TPT1 inh,BCLXL inh,PME-1 inh,PAD4 FP inh,GLD-1 TGE inh
Cc1cccc(-n2cnc3cc(C(=O)N4CCCCC4)ccc32)c1,0,0.7,-7,0,-1,-3,-3,-1
Cc1nnsc1NC(=O)OCc1ccc(C(C)(C)C)cc1,0,1.9,8,1,8,-13,2,1
COC(=O)c1cccc(S(=O)(=O)N2CCC(NC(=O)Nc3cccc(F)c3)CC2)c1,2,1.5,8,-5,8,0,1,0
O=c1c(Cl)c(NS(=O)(=O)c2ccccc2)cnn1-c1ccccc1,-2,1.2,6,1,5,1,5,-5
FC(F)(F)c1ccc(N2CCN(c3cc(-c4ccccc4)nc4ncnn34)CC2)nc1,-6,1.3,4,1,5,-5,-1,2
CC1=CC(C)(C)Nc2ccc(OC(=O)C(C)N3C(=O)c4ccccc4C3=O)cc21 (stereo unspecified),3,-3.2,1,-4,3,11,-1,7
CC(=O)C1=C(C)NC2(O)c3ccccc3C(=O)C12O (stereo unspecified),0,-4.2,-1,-2,-1,0,-8,1
Cc1ccc(C)c(OCC(=O)Nc2cccc(S(=O)(=O)NC3=NCCCCC3)c2)c1,6,-2.0,2,-4,3,-4,-3,6
CC(C)Oc1ccc(CN2CCC(n3nccc3NC(=O)c3cccnc3)CC2)cc1,1,2.3,2,-2,3,0,-2,5
COc1cc([N+](=O)[O-])ccc1NC(=O)NCc1ccccn1,4,1.6,10,-6,5,1,-2,1
CSc1n[nH]c(NCc2cccs2)n1,-5,0.6,-4,-2,0,-5,0,5
O=C1COc2ccc(S(=O)(=O)NCCc3ccc(Cl)cc3)cc2N1,-5,-0.8,-3,-1,2,0,-1,0
Cc1cccc(N2C(=O)CC(N3CCOCC3)C2=O)c1 (stereo unspecified),-2,-0.6,-3,-6,5,-1,-2,6
CC1Cc2nc(SCC(=O)N3CCN(c4ccccc4)CC3)n(C)c(=O)c2S1 (stereo unspecified),3,-1.3,-3,-5,2,-1,5,-1
O=C(CSc1nnc(C2CC2)n1Cc1ccccc1)c1ccc(S(=O)(=O)N2CCOCC2)cc1,-4,0.6,-4,0,-4,5,1,4
O=C1COc2ccc(S(=O)(=O)NCc3ccc(Cl)cc3)cc2N1,3,-4.2,-1,0,-1,4,-3,-11
O=C(CCl)Nc1ccccc1C(=O)Nc1ccc2c(c1)OCO2,5,0.1,8,2,6,-3,4,-3
CCOC(=O)Cc1nnc(NC(=O)C(CC)Sc2nc(C)cc(=O)[nH]2)s1 (stereo unspecified),4,-0.5,6,-3,5,1,2,3
COc1ccc(C(=O)CSc2nnc(Cn3cnc4ccccc43)o2)cc1,3,1.0,-1,1,0,3,1,0
CCOC(=O)N1CCC(NS(=O)(=O)c2ccc3c(c2)OCC(=O)N3)CC1,-2,-1.6,5,0,4,0,2,1
O=C(CSc1nnc(-c2cnccn2)n1Cc1ccco1)c1ccc(Cl)cc1,-1,-1.9,7,1,4,-4,-1,5
O=C(O)c1ccc(S(=O)(=O)N2CCSCC2)cc1,0,-1.2,-16,2,-3,4,4,5
Cc1ccc(C(=O)NC(=C(Cl)Cl)S(=O)(=O)c2ccc(C)cc2)cc1,-1,0.8,3,-1,6,2,7,1
O=C(CSc1nc(O)c(Cc2ccccc2)c(=O)[nH]1)Nc1nnc(SCc2ccccc2)s1,-1,-4.2,8,-3,10,0,0,5
CCOC(=O)C(Oc1ccc(=O)[nH]n1)C(C)=O (stereo unspecified),4,-0.9,-2,-4,-3,0,0,4
Cc1nnc(SCC2CCCO2)n1-c1ccccc1 (stereo unspecified),0,0.0,-7,0,-5,2,1,2
COC(=O)c1cc(S(=O)(=O)N2CCCC2)c(Cl)cc1Cl,0,0.8,7,-6,11,9,-2,7
O=C(/C=C/c1ccc(Cl)c([N+](=O)[O-])c1)Nc1cccc(NC(=O)c2ccco2)c1,-10,2.0,4,2,1,-21,-7,6
O=S(=O)(c1ccccc1Cl)N1CCC(O)(c2ccc3c(c2)OCO3)CC1,-7,0.9,-2,-1,4,0,1,2
O=c1cc(-c2ccccc2)[nH]n1-c1nc2ccccc2s1,10,3.0,9,-3,4,-3,-7,0
Nc1nc(SCC(=O)c2ccc([N+](=O)[O-])cc2)n[nH]1,1,-6.5,17,-1,6,3,1,9
Cn1c(SCCOc2cccc(Cl)c2)nnc1-c1ccncc1,-1,-1.5,-5,-3,2,-9,-9,3
CCCNC(=O)c1c(N)n(-c2ccc3c(c2)OCO3)c2nc3ccccc3nc12,-1,-1.5,5,-3,9,-5,-1,10
N#Cc1ccc(COc2ccc(CCO)cc2-n2nc3ccccc3n2)cc1,0,3.7,-2,5,3,10,-1,0
CC(C)(C)c1ccc(C(=O)Cn2nc(C(=O)O)c3ccccc3c2=O)cc1,-7,2.8,1,-3,-7,0,-2,1
Cc1ccc(-c2nn3c(C)nnc3s2)cc1N,2,-0.8,3,3,1,-2,-2,3
CC(c1ccccc1)N1CCN(C(=O)CCl)CC1 (stereo unspecified),-2,1.2,-3,-1,-1,1,0,-5
CC(C)(C)c1ccc(OCC(=O)NC2CCS(=O)(=O)C2)cc1 (stereo unspecified),1,2.4,4,3,0,4,-3,1
CCOc1ccc(NS(=O)(=O)c2ccc3[nH]c(=O)c(=O)[nH]c3c2)cc1,-4,0.2,9,5,0,-10,0,-1
O=C(c1cc(-n2cnnc2)ccc1Cl)N1CCN(c2nc(-c3ccccc3)cs2)CC1,-1,-0.7,-5,-5,-2,6,-3,1
CCCC12CN(C(=O)c3ccc(OC)cc3)CC(C)(CN(C(=O)c3ccc(OC)cc3)C1)C2=O,-3,1.1,-3,0,0,0,2,10
C=CCOc1nc2c(c(=O)n(C)c(=O)n2C)n1Cc1ccc(Cl)cc1Cl,-3,1.0,4,1,2,-6,1,2
COc1cnc(SCc2ccc(Cl)cc2Cl)nc1Cl,-5,-3.4,3,-5,2,-4,-3,4
CCCCOC(=O)C1=C(C)NC2(O)c3ccccc3C(=O)C12O (stereo unspecified),2,2.1,1,0,6,-2,1,-2
COc1ccc(C(=O)COC(=O)c2cc(S(=O)(=O)NCc3ccccc3)ccc2O)cc1,-3,0.5,2,0,4,1,-2,11
O=C(CCSc1ccccc1)Nc1nc2c(s1)COc1ccccc1-2,-9,-3.6,1,-2,0,-8,-1,6
O=C(CSc1nnc(CNC(=O)c2ccccc2)o1)c1ccc(Cl)cc1,-2,-1.3,-3,-4,3,0,-1,2
C=CCN(C(=O)Nc1ccc2c(c1)nc(C)n2C)c1ccccc1,-1,-1.8,6,1,3,1,3,2
CCCCCn1c(N)c(C#N)c2nc3ccccc3nc21,-4,4.9,0,1,2,9,-6,3
Cc1nn(C(C)C(=O)O)c2ccccc12 (stereo unspecified),-4,-3.0,0,-6,3,-6,-5,6
CCOc1ccc(C=NC23CN4CN(CN(C4)C2)C3)cc1,0,-1.7,1,-1,1,-5,-3,8
Nc1cc(=O)[nH]c(SCC(=O)Nc2cccnc2Cl)n1,2,0.4,0,-2,-1,-2,-8,3
Cc1c(C(=O)N2CCOCC2)sc(NC(=O)CCl)c1C#N,-4,3.0,5,6,4,-10,5,-8
O=C(CCl)N1CCN2C(=O)c3ccccc3C12c1ccc(Cl)cc1 (stereo unspecified),3,0.6,0,0,4,4,7,11
Cc1nc(NC(=O)c2ccccc2)sc1Cc1ccc2c(c1)OCO2,-7,3.7,6,-2,11,-11,1,9
O=C(COc1ccccc1)NCC(=O)Nc1cccc(S(=O)(=O)NC2=NCCC2)c1,0,1.7,0,-3,2,-2,-5,-5
COc1ccc(S(=O)(=O)NCC2CCCN(C(=O)c3ccccc3)C2)cc1 (stereo unspecified),-4,0.7,2,-3,6,1,-2,3
O=C(NC1(C(F)(F)F)C(=O)Nc2c1c(=O)[nH]c(=O)n2-c1ccccc1)c1ccncc1 (stereo unspecified),6,2.6,4,-1,5,-6,2,5
CCc1ccc(S(=O)(=O)Nc2ccc(-c3nc4cccnc4s3)cc2)s1,6,-2.0,-1,1,2,1,-4,-4
O=S(=O)(NCCC1=CCCCC1)c1cccc(S(=O)(=O)N2CCOCC2)c1,-4,-0.2,-5,2,9,4,0,8

# An excerpt from above, limited to TPT1 inh and MEX-5 binding:
SMILES | TPT1 inh | MEX-5 binding
COc1ccc(S(=O)(=O)NCC2CCCN(C(=O)c3ccccc3)C2)cc1 (stereo unspecified) | -3 | 0.7
Cc1nn(C(C)C(=O)O)c2ccccc12 (stereo unspecified) | -6 | -3.0

# The results go on.
SMILES,Fam108B inh,MEX-5 binding,MCL1-BIM inh,TPT1 inh,BCLXL inh,PME-1 inh,PAD4 FP inh,GLD-1 TGE inh
CCOc1ccc(NC(=O)CSc2nnc(Cc3ccccc3)c(=O)n2N)cc1,-3,3.1,1,-1,4,2,1,-2
COc1cccc(CNC(=O)C2CCCN(c3nc4ccccc4o3)C2)c1 (stereo unspecified),3,0.7,-2,-2,3,4,-3,2
CCOC(=O)Cc1nnc(NC(=O)CSc2ncc(-c3ccccc3)nn2)s1,-2,-3.0,1,1,6,-9,10,0
CCCCNC(=O)COC(=O)c1ccc(NS(=O)(=O)c2ccc3c(c2)OCCO3)cc1,4,-1.8,17,1,8,-2,2,11
O=C(NN1CC(C(=O)OCc2ccccc2F)CC1=O)c1ccccc1 (stereo unspecified),9,-0.4,6,0,8,6,8,7
CC(=O)Nc1cccc(-c2nc3ccccc3[nH]2)c1,3,-1.7,5,-2,0,-6,-3,1
CCOC(=O)C1=C(CCl)NC(=O)NC1c1ccc2c(c1)OCO2 (stereo unspecified),-2,-1.8,1,-1,-3,1,-2,4
CCn1nnnc1SCC(=O)NNC(=O)C1CCCCC1,1,0.7,3,-2,7,-14,-3,10
CSCC[C@H](NC(=O)OC(C)(C)C)C(=O)N1CCC(C(=O)N[C@H](C(=O)O)C(C)C)CC1,1,0.5,3,-2,1,-3,3,3
CCCCc1nnc(NC(=O)CSc2nc(=O)cc(N)n2-c2ccccc2)s1,5,-0.8,5,-1,3,-6,0,0
CC(=O)Nc1ccc(S(=O)(=O)NCc2nc(-c3ccc(C)cc3)no2)cc1,1,-0.7,-4,0,5,4,-2,-3
COC(=O)c1c[nH]n2c(=O)cc(CCl)nc12,-1,-13,12,-1,9,0,0,9
CC(SC1=NCCS1)C(=O)Nc1nnc(-c2ccc(Cl)cc2)s1 (stereo unspecified),-3,-1.4,1,-2,1,0,3,0

# Given with bars between the fields: part of the list above
Structure | Fam108B inh | MEX-5 binding | MCL1-BIM inh | TPT1 inh | BCLXL inh | PME-1 inh | PAD4 FP inh | GLD-1 TGE inh
CCOC(=O)Cc1nnc(NC(=O)CSc2ncc(-c3ccccc3)nn2)s1 | -2 | -3.0 | 1 | 1 | 6 | -9 | 10 | 0
CCCCNC(=O)COC(=O)c1ccc(NS(=O)(=O)c2ccc3c(c2)OCCO3)cc1 | 4 | -1.8 | 17 | 1 | 8 | -2 | 2 | 11
O=C(NN1CC(C(=O)OCc2ccccc2F)CC1=O)c1ccccc1 (stereo unspecified) | 9 | -0.4 | 6 | 0 | 8 | 6 | 8 | 7

# Reprinted at random: 4 entries already listed.
SMILES,Fam108B inh,MEX-5 binding,MCL1-BIM inh,TPT1 inh,BCLXL inh,PME-1 inh,PAD4 FP inh,GLD-1 TGE inh
O=C(NN1CC(C(=O)OCc2ccccc2F)CC1=O)c1ccccc1 (stereo unspecified),9,-0.4,6,0,8,6,8,7
CC(=O)Nc1cccc(-c2nc3ccccc3[nH]2)c1,3,-1.7,5,-2,0,-6,-3,1
CCOc1ccc(NC(=O)CSc2nnc(Cc3ccccc3)c(=O)n2N)cc1,-3,3.1,1,-1,4,2,1,-2
CC(=O)Nc1ccc(S(=O)(=O)NCc2nc(-c3ccc(C)cc3)no2)cc1,1,-0.7,-4,0,5,4,-2,-3
